PINK1 expr mod = changes PINK1 expression; Potency, µM (highest dose often 76.6 µM), for inactives: at the top dose activation (PINK1 increase), actives largely listed as activators; AID 624263; PINK1 immunofluorescence, high-content cytometry, 24 h; 0.2% of 410,000 active; active = well fitted activation curve with a large enough effect; inconclusive = small, poorly fitted or top-dose-only effect; inactive = flat fitted curve, though single readings scatter; cell line not stated here;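 note: potency is the fitted concentration of half-maximal effect; % of control where 0% means no effect; nearly all actives have a fitted effect of over 65% in size; a mitochondrial uncoupler was the plate control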
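Decision-based qHTS: stable cells, 24 h exposure to five compound concentrations, CCCP as control. Fixed cells stained for PINK1 plus nuclear, mitochondrial and cell markers, cytometer read.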
D2 ag = agonists of human D2 dopamine receptor (beta-arrestin); AID 624465; P14416; 0.084% of 360,000 active; activation, % (no concentration beside the values); DiscoveRx PathHunter D2 beta-arrestin, luminescence, 90 min; 100% = 57 uM dopamine signal; in the data active = activation above about 40%; inconclusive = about 15% to 40%; inactive = below about 15%; note: compound concentration not given in the record; the text of the record calls up to 30% inactive
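DiscoveRx PathHunter D2 beta-arrestin cells (2,100/well) attached overnight, then compound-stimulated 90 min at 37 C in HBSS/10 mM HEPES/0.1% Tween-20 buffer; beta-galactosidase complementation read by luminescence after 1 h at ambient temperature. Dopamine 57 uM final (EC100) as control.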
D2 PAM = positive allosteric modulators of human D2 dopamine receptor. P14416. DiscoveRx D2 beta-arrestin cells, luminescence, 90 min; 100% = 57 uM dopamine signal. potentiation, % (no concentration beside the values). 0.23% of 360,000 active. AID 624464; active = potentiation of 50% or more; inconclusive = 30% to 50%; inactive = 30% or less;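 note: compound concentration not given in the record; tested on top of an EC20 dose of dopamine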
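PathHunter D2 cells, attached overnight at 37 deg C, received compound in DMSO plus dopamine at EC20 (50 nM final) for 90 min at 37 deg C. Beta-arrestin recruitment was read as luminescence after 1 h with detection reagent at ambient temperature.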
TRPML1 ag = activates the human TRPML1 channel. Q9GZU1. TRPML1-expressing cells, Ca2+ dye fluorescence, FDSS; host cell line not named in the record; reference of the full effect not given here. activation, % (concentration not given with the values). 0.12% of 410,000 active. AID 624414; in the data active = activation above about 50%; inconclusive = about 30% to 50%; inactive = below about 30%; note: 0% is about no effect; the text of the record puts the active cut at 80%
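Tet-induced TRPML1-DL cells, 1,500 per well, cultured overnight, were loaded with a no-wash Ca2+ dye for 45–90 min. Calcium fluorescence was recorded on the FDSS for 110 s after compound addition, before the EC80 agonist (4 uM 54-4) was added.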
Six1-Eya2 blk = inhibitors of human Six1/Eya2 interaction; 0.56% of 360,000 active; AID 651725; Q15475+O00167; AlphaScreen GST-Six1/His-Eya2 binding, biochemical; stronger effect = lower value; control for the full effect not named in the record; activity change, % (test concentration not listed); in the data active = activity change below about -65%; inconclusive = about -30% to -65%; inactive = above about -30%; note: % is set by controls: 0 for no effect and ±100 for the full control effect; compound concentration not given in the record
Target sequence (O00167 whole entry, looked up): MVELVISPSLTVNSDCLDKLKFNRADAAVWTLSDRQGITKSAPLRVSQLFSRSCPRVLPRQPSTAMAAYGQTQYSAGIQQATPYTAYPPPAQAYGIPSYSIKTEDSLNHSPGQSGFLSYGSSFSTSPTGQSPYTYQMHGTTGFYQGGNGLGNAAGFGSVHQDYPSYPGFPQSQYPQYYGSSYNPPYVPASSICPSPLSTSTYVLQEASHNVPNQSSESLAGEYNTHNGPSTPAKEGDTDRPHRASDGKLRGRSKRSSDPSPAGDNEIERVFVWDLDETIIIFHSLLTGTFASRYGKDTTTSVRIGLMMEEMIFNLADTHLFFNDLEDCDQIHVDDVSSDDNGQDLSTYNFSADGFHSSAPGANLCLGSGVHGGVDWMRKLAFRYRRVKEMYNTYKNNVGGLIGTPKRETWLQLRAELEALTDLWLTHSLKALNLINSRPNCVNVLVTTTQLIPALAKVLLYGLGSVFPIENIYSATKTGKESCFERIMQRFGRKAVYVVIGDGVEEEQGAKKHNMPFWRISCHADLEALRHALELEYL
Target sequence (Q15475 whole entry, looked up): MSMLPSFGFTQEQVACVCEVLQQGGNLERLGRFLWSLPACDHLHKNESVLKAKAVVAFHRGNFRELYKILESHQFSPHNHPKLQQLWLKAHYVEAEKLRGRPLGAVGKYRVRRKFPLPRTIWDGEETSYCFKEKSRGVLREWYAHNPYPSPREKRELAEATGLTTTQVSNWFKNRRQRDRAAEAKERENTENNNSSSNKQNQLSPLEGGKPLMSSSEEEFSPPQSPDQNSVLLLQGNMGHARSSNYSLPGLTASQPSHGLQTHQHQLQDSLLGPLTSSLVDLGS
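GST-Six1 + His-Eya2 (5X stock: 250/500 nM); Tris pH 8.0, 300 mM NaCl, 0.05% BSA, 0.02% Tween 20; GSH donor/Ni acceptor beads; 1 h 37 °C dark; AlphaScreen readout.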
CtBP-E1A blk = blocks the CtBP interaction with E1A. 0.49% of 340,000 active. activity change, % (no concentration beside the values). AlphaScreen GST-E1A/His-CtBP binding, 1536-well; stronger effect = lower value; control for the full effect not named in the record; in the data active means activity change below about -65%; inconclusive means about -30% to -65%; inactive means above about -30%; note: % is set by controls: 0 for no effect and ±100 for the full control effect; compound concentration not given in the record
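GST-E1A and His-tagged CtBP (125 nM each as 5X stock) were preincubated with pin-transferred compound for 2 h at 37 °C in the dark, then glutathione donor and nickel acceptor beads were added for 1 h before AlphaScreen reading.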
* = called active by the depositor; u = inconclusive; x = not tested or not shown; & = joins results of further samples; [ ] = remark or other dose. The list is partial; rates above refer to the full screens.

SMILES | PINK1 expr mod | D2 ag | D2 PAM | TRPML1 ag | Six1-Eya2 blk | CtBP-E1A blk
Cc1c(NP(=O)(C(C)(C)C)C(C)(C)C)c(=O)n(-c2ccccc2)n1C | -0.4% | -1.8 | -0.5 | 0.5 | 8.2 | 5.0
CCc1nc2ccccc2c(=O)n1-c1ccc2ccccc2c1 | 3.5% | 0.7 | -0.2 | -0.2 | -2.6 | -0.8
N[C@@H](CCl)C(=O)O | 1.6% | -1.9 | -1.4 | 0.6 | 0.0 | 3.8
CCOc1ccccc1OCC(=O)Nc1ccc(Cl)cc1C(=O)c1ccccc1 | 0.9% | -7.1 | -8.9 | 2.7 | 23.6 | 21.0
O=[N+]([O-])/C=C1\NCCN1Cc1ccc(Cl)nc1 | -1.4%&0.4% | -4.3&2.3 | -5.2&-0.2 | 1.3&-0.2 | 8.4&3.9 | 6.7&0.0
Cc1nc2ccccc2c(=O)n1-c1ccc(F)cc1F | 1.1% | -0.1 | -8.1 | 0.5 | 3.4 | -2.8
c1ccc2c(CN3CCCCCCC3)c[nH]c2c1 | 0.1% | -4.1 | -43.7 | -0.2 | -1.8 | -10.6
O=C(CN1CCCCC1)NCC(=O)Nc1ccc(Br)cc1C(=O)c1ccccc1 | -2.4% | -3.1 | -9.6 | 1.7 | -5.5 | -14.1
C[C@]12CC[C@H](O)CC1=CC(=O)C1C2CC[C@]2(C)C(=O)[C@H](O)CC12 (stereo partly specified) | 0.1% | -1.9 | -5.9 | 0.3 | 5.2 | 2.4
C[C@]12CC[C@H](OS(=O)(=O)O)CC1=CC[C@@H]1[C@@H]2CC[C@]2(C)C(=O)CC[C@@H]12 | 0.7%&0.5%&1.2% | 2.4&-4.0&-0.6 | -9.3&-6.8&6.5 | -0.3&0.4&0.1 | 6.2&5.6&0.3 | 4.4&-23.4&7.2
CCC(C)N=Cc1c(O)n(-c2ccccc2)c(=O)[nH]c1=O (stereo unspecified) | 0.5%[38.3 µM] | -2.0 | -13.6 | 0.8 | 4.6 | 11.0
OC(c1ccc(F)cc1)C(c1ccccc1)N1CCOCC1 (stereo unspecified) | 0.0% | -3.8 | -4.8 | 1.0 | 4.4 | 8.2
Cc1cccc(C)c1-n1nnnc1C(c1ccccc1)N1CCC2(CC1)C(=O)NCN2c1ccccc1 (stereo unspecified) | -1.6% | -5.6 | -13.8 | -0.2 | -15.2 | 0.0
O=C1NC(=O)N(Cc2ccc(F)cc2)C(=O)/C1=C/c1cccs1 | -0.7% | 1.1 | -13.4 | 0.0 | -7.9 | -1.3
O=C1NC(=O)C(=Cc2ccco2)C(=O)N1 | 1.8% | 0.5 | -12.1 | 0.1 | -14.2 | 9.6
CCOC(=O)C(O)(c1cn(C)c2ccccc12)C(F)(F)F (stereo unspecified) | 11.7% | -1.2 | -20.0 | 2.2 | 14.2 | 0.0
O=CC(Br)P(=O)(N1CCOCC1)N1CCOCC1 (stereo unspecified) | 3.5% | -3.2 | -20.3 | 0.0 | -7.8 | x
Cc1nc2ccc(Br)cc2c(=O)n1-c1ccc([N+](=O)[O-])c(C(F)(F)F)c1 | u | 0.3 | -1.4 | 0.5 | -3.5 | -2.4
Cc1cccc(OP(N)(N)=O)c1C | -0.2% | -3.2 | -0.2 | 0.9 | 12.7 | x
CC1([N+](=O)[O-])COP(=O)(Nc2ccccc2F)OC1 (stereo unspecified) | -3.8% | -3.0 | -14.5 | -0.2 | 8.0 | 3.1
COc1cc(C(=O)OC2C[C@H]3CC[C@@H](C2)N3C)ccc1O (stereo partly specified) | 2.1% | 1.1 | 3.2 | -0.2 | 1.1 | 5.1
CCOC(=O)C1(c2ccccc2)CCN(CCC(=O)Nc2ccc(C(=O)OC)cc2)CC1 | 3.3% | -1.6 | -4.9 | 0.2 | -6.9 | -3.5
CCOC(=O)c1cc2c(cn1)[C@H](CCO)NC2 | 1.2% | -0.4 | x | -0.4 | -2.2 | 0.0
COc1ccc(C=O)cc1O | -0.7% | -4.3 | -1.2 | -0.4 | -2.6 | 4.0
CCCCCCC[n+]1ccc(-c2cc[n+](CCCCCCC)cc2)cc1 | -0.9%&1.7% | -0.7 | 0.6 | -0.1&-0.8 | 13.4 | -1.6

The listing continues:
SMILES | PINK1 expr mod | D2 ag | D2 PAM | TRPML1 ag | Six1-Eya2 blk | CtBP-E1A blk
C[N+]1(C)CCC(OC(=O)C(c2ccccc2)c2ccccc2)CC1 | 2.4% | -4.0 | -19.5 | -0.7 | 3.1 | 2.3
O=c1[nH]c(=O)n(C2CCCCC2)c(O)c1C=NCCCn1ccnc1 | 1.0% | -1.8 | -13.1 | -0.3 | 10.5 | 3.8
CCCCOCCCn1c(N)c(C(=O)OCCOC)c2nc3ccccc3nc21 | 5.1% | -3.7 | 4.2 | 1.3 | 0.2 | 10.4
CC(C)NS(=O)(=O)c1ccc(OCC(=O)N2CCN(Cc3ccccc3)CC2)cc1 | x | 2.2 | 12.2 | -0.3 | 2.6 | -1.2
Cc1ccc(-c2nc3ccc(Cl)cc3n2OC(=O)N(C)C)cc1 | -0.7% | 0.1 | 2.2 | -0.1 | 7.7 | -5.0
CCCCCCNc1nc(OC)nc(N2CC3CC(C2)c2cccc(=O)n2C3)n1 (stereo unspecified) | -0.9% | 3.6 | 7.4 | 0.2 | 2.4 | 1.9
CC(CN(C)C1CCN(C)CC1)c1ccccc1 (stereo unspecified) | 2.3% | -7.5 | -2.1 | -0.2 | -5.2 | 5.3
CCCCCn1c(=O)c(C(=O)Nc2c(C)n(C)n(-c3ccccc3)c2=O)c(O)c2ccccc21 | -0.1% | -0.9 | -16.9 | 0.4 | 2.3 | 3.9
CCC[C@H](N[C@@H](CCC)[C@H](O)c1ccccc1)[C@H](O)c1ccccc1 | 13.3% | -1.0 | -5.6 | 1.1 | 9.7 | 1.4
CCCCCCCSc1cc(OC)c(CCNC)cc1OC | -4.4% | -6.1 | -17.2 | 0.0 | u | u
CCCCNC(=S)N1CCn2cccc2C1c1cccnc1 (stereo unspecified) | -0.1% | 0.6 | -19.1 | 0.1 | -6.2 | -1.7
COc1ccc(CCNCc2ccccc2F)cc1 | -1.5% | -4.3 | -21.0 | -0.6 | 2.7 | 0.4
CCOC(=O)CN1C(=O)C2(C(C#N)=C(N)Oc3ccccc32)C(C(=O)OC)=C1C (stereo unspecified) | -0.8% | 4.3 | 10.6 | -0.1 | -2.4 | 3.6
O=C1CC(c2cccnc2)=NN1c1ccccc1 | -0.4% | 1.1 | -5.2 | -0.3 | -0.6 | 6.4
CN1C(=O)C(Cc2cccc3ccccc23)C(=O)N(C)C1=O | 1.4% | 7.1 | x | -0.3 | -1.5 | 7.6
N#CC(c1cccnc1)N1CCOCC1 (stereo unspecified) | 1.7% | -3.7 | 4.3 | x | 4.2 | 3.4
COc1ccc2c(C)c(CC(=O)N3C[C@H]4C[C@@H](C3)c3cccc(=O)n3C4)c(=O)oc2c1 | 0.2% | -1.5 | -12.9 | x | -1.1 | 1.5
O=[N+]([O-])c1oc2ccc3ccccc3c2c1CCO | -4.7% | 2.2 | -2.5 | 0.5 | -10.3 | -16.0
NC(=O)c1cc(N2CC2)c([N+](=O)[O-])cc1[N+](=O)[O-] | 2.8% | -3.6 | -27.7 | 1.4 | 4.5 | 1.8
COc1ccccc1OCC#CCN1CCCCCC1 | 0.3% | -0.2 | -9.8 | 3.2 | -11.5 | 4.1
COC(=O)C1=C(c2cccc(OC)c2OC)C[C@@H]2CC[C@H]1N2C(=O)NC1CC1 | -0.2% | -4.8 | -3.4 | -0.4 | 5.4 | 6.4
C=C1C/C(=C/C)C(=O)O[C@@H]2CCN3CC=C(COC(=O)[C@]1(C)O)[C@H]23 | 1.1% | -4.0 | -9.8 | -0.7 | 3.0 | x
O=C(CF)N(O)c1ccc(C=Cc2ccccc2)cc1 | -2.0% | -3.2 | -22.9 | 0.6 | -5.8 | 5.2
O=c1[nH]c(=O)n(-c2ccccc2)c(O)c1/C=C/C=Nc1ccccc1 | 3.9% | -1.7 | -18.2 | 4.7 | 0.9 | 14.4
O=c1[nH]c(CN2CC=C(c3ccccc3)CC2)nc2scc(-c3cccs3)c12 | 2.6% | -0.2 | -3.1 | 0.6 | -10.4 | x

Quoted at random: two entries already listed, in no set order.
SMILES | PINK1 expr mod | D2 ag | D2 PAM | TRPML1 ag | Six1-Eya2 blk | CtBP-E1A blk
CN1C(=O)C(Cc2cccc3ccccc23)C(=O)N(C)C1=O | 1.4% | 7.1 | x | -0.3 | -1.5 | 7.6
CCCCCCNc1nc(OC)nc(N2CC3CC(C2)c2cccc(=O)n2C3)n1 (stereo unspecified) | -0.9% | 3.6 | 7.4 | 0.2 | 2.4 | 1.9

Carrying on:
SMILES | PINK1 expr mod | D2 ag | D2 PAM | TRPML1 ag | Six1-Eya2 blk | CtBP-E1A blk
CS(=O)(=O)c1ccc(C2=C(CNC(=O)c3cccs3)[C@H]3CC[C@@H](C2)N3Cc2ccco2)cc1 | -0.3% | -0.7 | x | x | -1.7 | -3.1
NC(Cc1ccc(Cl)cc1)c1csc(Nc2cnccn2)n1 (stereo unspecified) | 6.0% | -2.6 | -18.9 | 0.6 | -71.6* | u
CCC(=O)Nc1ccccc1 | 0.5% | 2.1 | -4.9 | x | 3.9 | 13.8
O=C(O)C(O)(c1ccccc1)C1CCCC1 (stereo unspecified) | 0.0% | -2.1 | 14.5 | 0.7 | 3.8 | 3.6
CNCC(=O)c1ccccc1 | 0.8% | -12.4 | -77.1 | x | 1.8 | 0.1
COC(=O)C1=C(c2ccc(OC)c(OC)c2)C[C@@H]2CC[C@H]1N2C(=O)NCCO | 1.8% | -7.0 | -9.3 | 0.3 | 5.7 | 3.6
Cc1n[nH]c(C)c1CCN | 1.3% | 2.6 | -0.5 | 0.5 | 7.5 | 8.9
N#Cc1c(N2CCNCC2)nc(-c2ccco2)c2c1CCCC2 | -0.7% | 0.4 | -7.2 | -0.4 | 0.9 | 5.2
COC(=O)C1=C(c2ccc(OCc3ccccc3)cc2)C[C@@H]2CC[C@H]1N2C(=O)NCCCc1ccccc1 | -1.2% | -3.8 | -7.7 | 3.3 | 4.8 | -5.1
COc1ccc(N2C(=O)NC(=O)/C(=C\c3ccc([N+](=O)[O-])s3)C2=O)cc1 | -0.3% | x | 16.5 | 2.5 | u | -20.7
CCC(=O)C(CCN1CCOCC1)(c1ccccc1)c1ccccc1 | 1.7% | -2.6 | -5.7 | -1.1 | 0.3 | 3.2
O=[N+]([O-])c1cnc[nH]1 | 1.5% | -5.3 | -3.5 | 0.7 | 0.2 | 4.2

Given as comma-separated lines: part of the list above.
compound,PINK1 expr mod,D2 ag,D2 PAM,TRPML1 ag,Six1-Eya2 blk,CtBP-E1A blk
NC(Cc1ccc(Cl)cc1)c1csc(Nc2cnccn2)n1 (stereo unspecified),6.0%,-2.6,-18.9,0.6,-71.6*,u
O=C(O)C(O)(c1ccccc1)C1CCCC1 (stereo unspecified),0.0%,-2.1,14.5,0.7,3.8,3.6
COc1ccc(N2C(=O)NC(=O)/C(=C\c3ccc([N+](=O)[O-])s3)C2=O)cc1,-0.3%,x,16.5,2.5,u,-20.7
CNCC(=O)c1ccccc1,0.8%,-12.4,-77.1,x,1.8,0.1
Cc1n[nH]c(C)c1CCN,1.3%,2.6,-0.5,0.5,7.5,8.9
